Vif A3G: inhibitors of Vif binding to APOBEC3G peptide, primary screen, biochemical, TR-FRET, GST-Vif 1-94, biotin-A3G peptide, dose response retest (AID 1117319); TR-FRET GST-Vif / biotin-A3G peptide binding; higher % means a stronger effect; test concentration not given here; strong numbers were not always called active; Virion infectivity factor (Human immunodeficiency virus type 1 group M subtype B (isolate …; one-dose inhibition, %; IC50 in µM for titrated hits; actives 0.57% (n = 260,000);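 active = above the screen mean plus three standard deviations and confirmed in dose response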;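 also: Vif residues 1-94 fused to GST binding biotinylated APOBEC3G peptide 110-148; 0% = full assay without inhibitor and 100% = GST in place of GST-Vif; retest series ran down from 100 µM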
Ecoli rRNA inh: reduced GFP signal of wild-type E. coli, primary screen, bacterial rRNA inhibitor project, GFP/RFP fluorescence, OD600, single point | E. coli WT GFP vs humanized-ribosome RFP mutants, 24 h; stronger effect = lower value; DMSO median 0, no signal -100 | GFP signal change (wild-type ribosome), % (no concentration beside the values) | actives 1.6% (n = 350,000) | AID 720706, 2013;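 active = significant combined selectivity score with lowered wild-type GFP, culture density cut under 30%, mutant RFP and density less affected; inactive = any of these conditions unmet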; also: one replicate is shown; some compounds called inactive have numbers as strong as hits
FGF22 binding: binders of human FGF22 protein, primary screen, FGF22 synaptogenesis inhibitor project, biophysical, thermal shift, single point; Fibroblast growth factor 22 (Homo sapiens), Q9HCT0; recombinant FGF22 thermal shift, SYPRO orange fluorescence; percent of sucrose octasulfate shift, DMSO zero; calls only at 9.99 µM; actives 1.5% (n = 340,000); AID 651658, 2012;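 active = melting point raised past a set limit in the mean and every replicate; three in four hits are not shown here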
HNF4A DNA FP: change in binding of human HNF4A to DNA, primary screen, biochemical, fluorescence polarization, FITC-DNA | 1 h | activity change, % at 10 µM | actives 0.3% (n = 360,000) | AID 1224865, 2016; in the data active = activity change above about 30%, passing the limit was not always enough;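 also: controls were the assay level and a saturating level of protein; the project sought stronger binding though the title names inhibitors; some compounds called inactive have numbers as strong as hits; positive values seem to mean higher polarization but the record does not say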
Target sequence (P41235 whole entry, looked up): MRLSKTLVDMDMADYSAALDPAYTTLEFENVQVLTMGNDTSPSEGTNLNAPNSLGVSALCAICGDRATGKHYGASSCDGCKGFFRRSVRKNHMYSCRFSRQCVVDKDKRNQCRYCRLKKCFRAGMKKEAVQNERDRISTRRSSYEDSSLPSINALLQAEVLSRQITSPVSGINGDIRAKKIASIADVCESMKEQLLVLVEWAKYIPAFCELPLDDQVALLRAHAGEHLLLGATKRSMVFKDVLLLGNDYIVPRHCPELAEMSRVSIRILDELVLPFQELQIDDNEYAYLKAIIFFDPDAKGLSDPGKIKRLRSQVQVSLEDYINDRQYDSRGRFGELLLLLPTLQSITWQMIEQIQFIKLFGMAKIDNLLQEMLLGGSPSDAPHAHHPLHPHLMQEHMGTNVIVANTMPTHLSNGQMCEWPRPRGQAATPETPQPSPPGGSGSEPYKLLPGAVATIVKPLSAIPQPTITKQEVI
ALR inh: inhibitors of human ALR sulfhydryl oxidase, primary screen, biochemical, H2O2 detection, HRP-luminol luminescence, single point. purified ALR, DTT oxidation. inhibition, % (test concentration not listed). actives 3.8% (n = 290,000);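 active = mean and each replicate at 75% or more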;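 also: stock transfer was 7.5 nL into about 7.5 µL; 0% = neutral wells and 100% = wells with inactivated enzyme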
MLL AF4-AF9 inh: inhibitors of AF4 peptide binding to AF9, primary screen, biochemical, AlphaScreen, biotin-AF4 peptide, FLAG-AF9, single point | Protein AF-9 (Homo sapiens), P42568 | inhibition, % at 10 µM | actives 0.47% (n = 350,000) | AID 651704, 2012;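 active = every replicate reaching a set inhibition limit, whatever the replicate mean, cut at about 25% in these data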;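 also: 0% = plate neutral control median and 100% = total signal loss; the record names both 10 and 1 µM as test concentration; the first replicate is given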
Target sequence (P42568 whole entry, looked up): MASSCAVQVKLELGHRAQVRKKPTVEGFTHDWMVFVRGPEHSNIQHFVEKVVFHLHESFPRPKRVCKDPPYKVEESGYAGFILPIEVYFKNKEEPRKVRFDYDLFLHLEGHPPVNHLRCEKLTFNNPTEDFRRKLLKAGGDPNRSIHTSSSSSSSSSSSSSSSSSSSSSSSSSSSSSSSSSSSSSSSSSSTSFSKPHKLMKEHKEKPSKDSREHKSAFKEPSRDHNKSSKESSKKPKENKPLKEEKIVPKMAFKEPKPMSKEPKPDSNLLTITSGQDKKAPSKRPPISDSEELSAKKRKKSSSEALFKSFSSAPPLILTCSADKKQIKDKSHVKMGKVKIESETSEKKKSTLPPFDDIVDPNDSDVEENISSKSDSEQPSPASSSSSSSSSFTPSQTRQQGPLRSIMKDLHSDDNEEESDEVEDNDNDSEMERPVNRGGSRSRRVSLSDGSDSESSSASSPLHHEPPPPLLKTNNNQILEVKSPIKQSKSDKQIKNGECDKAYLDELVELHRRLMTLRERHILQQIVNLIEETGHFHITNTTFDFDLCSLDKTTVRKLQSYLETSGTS
Ecoli growth: E. coli growth inhibition, primary screen, OD600; Escherichia coli growth, 23 h; stronger effect = lower value; OD600 absorbance (test concentration not listed); actives 0.21% (n = 330,000);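 active = OD600 absorbance below the run mean of sample wells minus 3.6 SD, in any replicate, cut at about 0.56 in these data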;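 also: stock transfer was 300 nL into about 60 µL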
Ecoli rRNA inh OD600: also measured in Ecoli rRNA inh; calls as there; OD600 change, %; measured here: OD600 growth;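 optical density of the mix in the first replicate; 0 = DMSO median and -100 = no signal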
Ecoli rRNA inh RFP: recorded beside Ecoli rRNA inh, whose call it bears; RFP signal change, %; measured here: RFP humanized mutant strains;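 first replicate; 0 = DMSO median and -100 = no signal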
Active calls of the source: *; i = inactive; nt = not tested or not shown; & = joins results of further samples.

SMILES | Vif A3G | Ecoli rRNA inh | Ecoli rRNA inh OD600 | Ecoli rRNA inh RFP | FGF22 binding | HNF4A DNA FP | ALR inh | MLL AF4-AF9 inh | Ecoli growth
Cc1cccnc1NC(=O)c1ccco1 | 0% | 6 | 7 | 0.4 | i | -6.9 | nt | -1.3 | 0.69
FC(F)(F)c1cccc(-c2cc3ccccc3nc2N2CCCC2)c1 | -6% | nt | nt | nt | nt | 2.4 | 4 | nt | 0.68
COc1cccc(CN2CCN(Cc3ccccc3C(F)(F)F)CC2)c1 | nt | -31 | -65 | 1.7 | i | -3.0 | -30 | -0.3 | 0.63
NC(=O)CC(NC(=O)Cc1cccc2ccccc12)c1ccc(NC2CC3CCC2C3)c([N+](=O)[O-])c1 (configuration not stated) | nt | 9 | 21 | 8.7 | i | 19 | -1 | 2.9 | 0.7
CCCCn1c(N)c(N(CCC(C)C)C(=O)C2CC(=O)N(Cc3ccc(C)cc3)C2)c(=O)[nH]c1=O (configuration not stated) | 5% | 11 | 7 | 1.6 | i | 0.5 | -4 | 0.5 | 0.6
O=C(CN1C(=O)NC2(CCCC2)C1=O)Nc1cccc(C(F)(F)F)c1 | -5% | -3 | 5 | -0.3 | i | 0.4 | -3 | 2.6 | 0.66
O=C(NC(Cc1ccccc1)C(=O)N1CCCC(C(F)(F)F)C1)c1ccccc1 (configuration not stated) | 2% | 5 | 3 | 2.0 | i | 0.9 | 1 | -0.7 | 0.7
Cc1ccc(C(=O)O)cc1NC(=S)NC(=O)c1ccc(COc2ccccc2)cc1 | -3% | -25 | -34 | -9.7 | i | 1.7 | 62 | -0.9 | 0.68
COc1ccc(CNC(=O)C(C)N(Cc2ccco2)C(=O)c2snc(C(N)=O)c2N)cc1 (configuration not stated) | -1%&2% | -5 | -2 | -6.6 | i | -1.6 | 1 | 7.6 | 0.68
COc1cc(CNc2ccc(N3CCCC3)cc2)cc(Cl)c1OC | nt | nt | nt | nt | i | 0.2 | 19 | 9.0 | 0.66
COc1ccc(C(=O)CCC(=O)N2CCN(c3ccc([N+](=O)[O-])cc3)CC2)cc1 | -9% | -2 | 9 | 1.0 | i | 0.2 | 1 | -3.9 | 0.75
O=C(COC(=O)c1ccc(O)cc1)Nc1ccccc1[N+](=O)[O-] | -1% | -12 | -11 | 3.3 | i | 0.0 | -2 | 1.3 | 0.69
O=C(COC(=O)Cc1c[nH]c2ccccc12)NCCc1ccccc1 | -1% | 2 | -7 | 1.6 | nt | -3.4 | -6 | 0.7 | 0.69
CCOC(=O)[C@@H]1[C@H]2COc3ccccc3[C@H]2N2C(=O)N(c3ccc(Br)cc3)C(=O)[C@]12C | nt | -9 | -13 | -4.0 | i | -1.8 | 8 | nt | nt
Cc1cc(C)n(-c2nnc(SCC(=O)NC3CCCC3)c3ccccc23)n1 | 18% | nt | nt | nt | nt | -1.6 | -1 | nt | 0.68
COc1ccc(C#Cc2ccc([C@H]3[C@@H](CO)N4CCCCN(S(=O)(=O)c5ccccc5)C[C@@H]34)cc2)cc1 | nt | 6 | 13 | 2.3 | i | nt | nt | -0.7 | nt
CCN(CC(=O)Nc1cccc(S(=O)(=O)N(C)c2ccccc2)c1)Cc1cccs1 | nt | -18 | -22 | -6.5 | i | 2.4 | -14 | 0.8 | 0.64
COc1ccc(Cn2c(=O)oc3ccccc32)cc1 | 0% | -6 | 1 | 2.8 | i | -7.9 | nt | -2.2 | nt
C[C@@H]1CN([C@@H](C)CO)C(=O)c2cc(NS(=O)(=O)c3ccc(F)cc3)ccc2O[C@H]1CN(C)S(=O)(=O)c1ccc(Cl)cc1 | nt | -3 | -8 | 2.6 | i | nt | nt | -1.0 | nt
CCc1cccc(C)c1NC(=O)C(c1ccc(O)cc1)N1CCC1=O (configuration not stated) | 1% | nt | nt | nt | nt | -0.6 | -2 | nt | 0.69
CC1CCCN(C(=O)Cn2c(=O)oc3ccccc32)C1 (configuration not stated) | -1% | nt | nt | nt | nt | 0.9 | -5 | nt | 0.71
Cc1cc(C)n(-c2cc(N3CCN(C(=O)c4ccc(C(C)(C)C)cc4)CC3)ccc2[N+](=O)[O-])n1 | -5% | nt | nt | nt | nt | -1.2 | -11 | nt | 0.78
COc1cccc(C2CC(c3ccccc3OC)n3ncnc3N2)c1 (configuration not stated) | 3% | -7 | -13 | 2.1 | i | 0.4 | -6 | 5.6 | 0.63
COc1ccc(C#Cc2ccc([C@H]3[C@@H](CO)N4CCCCN(C(=O)Nc5ccc(F)cc5)C[C@H]34)cc2)cc1 | nt | -53 | -59 | -8.8 | i | nt | nt | 5.5 | nt
COc1cc([C@@H]2CC=C(C(=O)O)[C@H](c3ccccc3F)N2S(=O)(=O)c2ccc(C)cc2)cc(OC)c1OC | nt | -2 | 15 | 0.9 | i | 0.1 | 3 | -9.1 | nt
Remaining list, next part:
SMILES | Vif A3G | Ecoli rRNA inh | Ecoli rRNA inh OD600 | Ecoli rRNA inh RFP | FGF22 binding | HNF4A DNA FP | ALR inh | MLL AF4-AF9 inh | Ecoli growth
CC(=O)c1ccc(OCCCC(=O)Nc2ccc(C)c(S(=O)(=O)N3CCOCC3)c2)cc1 | 4% | -13 | -12 | 0.4 | i | -2.6 | nt | 0.4 | 0.7
COc1ccc(CN2C(=O)C(CC(=O)NCCc3ccccn3)CC(C(=O)N3CCCCCC3)=C2C)cc1 (configuration not stated) | nt | nt | nt | nt | i | -0.4 | nt | 0.8 | nt
COC(=O)CCC(=O)NC1CC(C)(C)Cc2c1cnn2-c1ccc(F)cc1 (configuration not stated) | nt | 10 | 8 | 0.4 | i | -2.2 | 2 | -5.7 | 0.71
C[C@@H]1CN([C@H](C)CO)C(=O)c2cc(C#CCc3ccccc3)cnc2O[C@@H]1CN(C)CC1CCOCC1 | nt | 2 | 3 | -2.0 | i | nt | nt | 0.0 | nt
Cn1c(N2CCCCC2)nc2c1c(=O)[nH]c(=O)n2C | -3% | nt | nt | nt | nt | 1.5 | 12 | nt | 0.69
CO[C@@H]1CN(C)C(=O)c2ccc(NS(=O)(=O)c3ccccc3)cc2OC[C@H](C)N(Cc2cccnc2)C[C@H]1C | nt | -1 | -2 | -0.7 | i | nt | nt | 3.1 | nt
CCOc1ccc(NC(=O)Nc2ccc(Cc3ccncc3)cc2)cc1 | nt | 3 | -6 | 0.4 | i | -0.9 | -1 | 1.3 | 0.68
Cn1c(NCC2CCCO2)nc2c1c(=O)n(Cc1ccccc1)c(=O)n2C (configuration not stated) | 27% | nt | nt | nt | nt | -2.8 | -9 | nt | 0.71
C[C@H]1CN([C@@H](C)CO)C(=O)Cc2cc(NC(=O)CCC(F)(F)F)ccc2O[C@H]1CN(C)S(=O)(=O)c1ccccc1 | nt | -1 | 1 | -2.0 | i | nt | nt | 0.2 | nt
CC(C)NC(=O)c1cccc(C(F)(F)F)c1 | -1% | nt | nt | nt | nt | -3.1 | -22 | nt | 0.72
COCc1ccc(C(=O)N2CCCC(N(C)CCc3ccccc3)C2)s1 (configuration not stated) | 0% | 24 | 18 | 3.8 | i | 1.6 | nt | 2.6 | nt
C[C@@H]1CCCCO[C@@H](CN(C)C(=O)CCCN(C)C)[C@@H](C)CN([C@H](C)CO)C(=O)c2cc(NS(=O)(=O)c3cn(C)cn3)ccc2O1 | nt | 4 | 4 | -1.7 | i | nt | nt | 2.4 | nt
Cc1cccc(-n2c(O)c(C=Nc3ccccc3)c3ccccc3c2=O)n1 | -10% | -1 | 40 | 5.3 | i | 1.1 | -15 | 1.2 | 0.67
C[C@@H]1CN([C@@H](C)CO)C(=O)c2cc(-c3cccnc3)cnc2O[C@H]1CN(C)C(=O)Cc1cccnc1 | nt | 8 | 2 | -4.7 | i | nt | nt | -2.3 | nt
COc1cc(-c2cc(=O)c3c(O)cc(O)cc3o2)cc(OC)c1OC | nt | nt | nt | nt | i | 0.5 | nt | -1.2 | nt
COc1cc(C(=O)N2Cc3cc4ccccc4nc3C2C)cc(OC)c1OC (configuration not stated) | 2% | 0 | 1 | 1.8 | i | 0.2 | nt | 4.5 | nt
Cc1c(C(=O)O)oc2ccc(S(=O)(=O)NCc3ccc(F)cc3)cc12 | -4% | nt | nt | nt | nt | -0.1 | -6 | nt | 0.76
COc1ccc(CN2CCN(CC3CC3)CC2CCO)cc1C (configuration not stated) | nt | 5 | 5 | -2.4 | i | 2.1 | nt | 1.0 | 0.67
O=c1c2ccccc2nc2n1CCc1c-2[nH]c2ccccc12 | nt | nt | nt | nt | i | -0.9 | -13 | -5.3 | 0.7
Cc1ncc2c(c1OC(=O)c1ccccc1)COC(C)(C)OC2 | 3% | nt | nt | nt | nt | 3.9 | -1 | nt | 0.69
O=C(Nc1cccnc1)Nc1cccc(F)c1 | 5% | -4 | -16 | -1.0 | i | 3.1 | -6 | 1.3 | 0.62
CCOc1ccc(-n2cc(-c3ccccc3)c3c(=S)nc[nH]c32)cc1 | nt | -45 | -52 | -19 | i | -3.7 | -2 | 2.1 | 0.71
CN(CC(=O)Nc1ccc(Cl)cc1)CC(=O)Nc1sc2c(c1C(N)=O)CCC2 | -7% | 9 | 9 | 13 | i | 4.2 | nt | -6.7 | nt
COc1ccc(CNCc2cccc(Cl)c2)cc1 | 4% | 7 | -6 | -2.8 | i | 3.3 | -2 | -27 | 0.7
COc1ccc(NC2=NCC(Cc3ccc(Br)cc3)S2)cc1 (configuration not stated) | 27% | -62 | -81 | -24 | i | -0.8 | -3 | 5.9 | 0.53
CCCn1c(N)c(C(=O)CSc2nc(C)cs2)c(=O)n(C)c1=O | 23% | nt | nt | nt | nt | 1.8 | -4 | nt | 0.68
COc1ccc(C#Cc2cnc3c(c2)C(=O)N([C@H](C)CO)C[C@H](C)[C@@H](CN(C)CC2CCOCC2)O3)cc1 | nt | 4 | 10 | -2.7 | i | nt | nt | 4.4 | nt
O=C(c1ccc(F)cc1)c1cccc(C(=O)c2ccc(F)cc2)n1 | -17% | 5 | 11 | -4.8 | i | 3.1 | nt | -2.7 | nt

Gathered by group: those above containing a Cl atom (4)
SMILES | Vif A3G | Ecoli rRNA inh | Ecoli rRNA inh OD600 | Ecoli rRNA inh RFP | FGF22 binding | HNF4A DNA FP | ALR inh | MLL AF4-AF9 inh | Ecoli growth
COc1cc(CNc2ccc(N3CCCC3)cc2)cc(Cl)c1OC | nt | nt | nt | nt | i | 0.2 | 19 | 9.0 | 0.66
C[C@@H]1CN([C@@H](C)CO)C(=O)c2cc(NS(=O)(=O)c3ccc(F)cc3)ccc2O[C@H]1CN(C)S(=O)(=O)c1ccc(Cl)cc1 | nt | -3 | -8 | 2.6 | i | nt | nt | -1.0 | nt
CN(CC(=O)Nc1ccc(Cl)cc1)CC(=O)Nc1sc2c(c1C(N)=O)CCC2 | -7% | 9 | 9 | 13 | i | 4.2 | nt | -6.7 | nt
COc1ccc(CNCc2cccc(Cl)c2)cc1 | 4% | 7 | -6 | -2.8 | i | 3.3 | -2 | -27 | 0.7

Quoted from the listing.
C[C@@H]1CN([C@H](C)CO)C(=O)c2cc(C#CCc3ccccc3)cnc2O[C@@H]1CN(C)CC1CCOCC1 | MLL AF4-AF9 inh = 0.0
Cc1ncc2c(c1OC(=O)c1ccccc1)COC(C)(C)OC2 | HNF4A DNA FP = 3.9

Screening results as filed in PubChem BioAssay.

Only part of the results is shown; the hit share may differ from the screen's.
